A647 fluor: qHTS Assay for Spectroscopic Profiling in A647 Spectral Region; Compound fluorescence, A647 channel (570/671 nm), Tris buffer; max dye-equivalent concentration, M; 59,000 tested, under 10 active; AID 592, 2007; active means above 1 µM dye equivalent; inconclusive means 0.1 to 1 µM; inactive means 0.1 µM or less;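 further: values scaled relative to a standard on each plate; highest value over a series up to 38 µM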
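Each compound's intrinsic fluorescence at 570 nm excitation and 671 nm emission is measured across its concentration series in 100 mM Tris, pH 8.0, after 15 min at room temperature, and reported relative to an A647 curve.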
A488 fluor: qHTS Assay for Spectroscopic Profiling in A488 Spectral Region; compound autofluorescence, A488 spectral region, dye equivalency; stronger effect = higher value; max dye equivalency, M; 59,000 compounds, 0.1% hits; AID 591, 2007; active = above 10 nM dye equivalent; inconclusive = 1 to 10 nM; inactive = 1 nM or less; about half of its hits are not listed in these tables;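 further: highest value over a series up to 38 µM; compound alone in buffer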
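Autofluorescence read at ex 480/em 540 nm after 15 min RT in 100 mM Tris pH 8.0; compound signal normalized to A488 standard series on each plate, reported as dye-equivalent concentration at each test concentration.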
TSHR agonist: qHTS Assay for Agonists of the Thyroid Stimulating Hormone Receptor. Thyrotropin receptor (Homo sapiens), P16473. HEK293-CNG-TSHR cells (CNG channel as cAMP sensor), membrane potential dye, cAMP. Potency, µM (doses to about 57.1 µM), inactives show top-dose activation, actives largely listed as activators. 73,000 compounds, 0.48% hits; active = well fitted activation curve of enough size with the parental cells flat; inconclusive = any curve in the parental cells; inactive = parental cells flat and receptor cells flat or falling; further: potency means the concentration at half of the fitted maximal effect; % of control where 0% means no effect; weak receptor curves with flat parental cells got no call and are not listed
Target sequence (P16473 whole entry, looked up): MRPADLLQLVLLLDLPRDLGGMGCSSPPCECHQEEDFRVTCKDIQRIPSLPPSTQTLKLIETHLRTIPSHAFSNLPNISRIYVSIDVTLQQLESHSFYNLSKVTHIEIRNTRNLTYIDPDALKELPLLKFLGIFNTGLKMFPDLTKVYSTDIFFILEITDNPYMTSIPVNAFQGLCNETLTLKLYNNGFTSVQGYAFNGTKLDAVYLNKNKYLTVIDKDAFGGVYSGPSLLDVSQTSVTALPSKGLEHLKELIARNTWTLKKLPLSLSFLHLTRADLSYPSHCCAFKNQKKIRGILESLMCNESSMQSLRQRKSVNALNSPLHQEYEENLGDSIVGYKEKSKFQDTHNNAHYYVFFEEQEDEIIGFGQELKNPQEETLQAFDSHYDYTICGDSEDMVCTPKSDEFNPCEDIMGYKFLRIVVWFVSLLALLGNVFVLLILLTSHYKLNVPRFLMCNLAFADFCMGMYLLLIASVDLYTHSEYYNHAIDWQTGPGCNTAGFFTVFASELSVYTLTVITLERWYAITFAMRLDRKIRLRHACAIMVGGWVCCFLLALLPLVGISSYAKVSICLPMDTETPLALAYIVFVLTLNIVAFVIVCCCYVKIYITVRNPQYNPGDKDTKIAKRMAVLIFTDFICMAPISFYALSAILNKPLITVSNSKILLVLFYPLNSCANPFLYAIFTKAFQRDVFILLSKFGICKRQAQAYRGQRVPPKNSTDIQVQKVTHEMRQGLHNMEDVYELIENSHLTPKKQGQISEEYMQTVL
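cAMP rise detected as CNG-channel membrane depolarization by fluorescent dye (emission 590 nm), 30 min after compound, following 60 min dye loading containing 100 uM RO 20-1724 at room temperature. Cells: TSHR/CNG HEK 293, with parental CNG HEK 293 as control.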
Resorufin fluor: qHTS Assay for Spectroscopic Profiling in Resorufin Spectral Region; AID 588, 2007; Compound fluorescence, resorufin region 547/598 nm, buffer; stronger effect = higher value; max dye-equivalent concentration, M; 59,000 compounds, 0.04% hits; active = above 10 nM dye equivalent; inconclusive = 1 to 10 nM; inactive = 1 nM or less; a few of its hits are not listed in these tables; further: highest value over a series up to 38 µM
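Tris 100 mM pH 8.0; compound added, 15 min RT; CCD imager read, ex 547 nm/em 598 nm; signal normalized to resorufin standard curve (six concentrations per plate) as dye-equivalent concentration.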
AID923: qHTS Assay for Allosteric/Competitive Inhibitors of Caspase-1: Spectroscopic Profiling in AFC Spectral Region. compound fluorescence, AFC spectral region (405/520 nm); almost no hit is shown here. Potency, µM (doses to about 57.5 µM), inactives show at the highest dose fluorescence increase, hits mostly activators. 75,000 compounds, 1.1% hits. AID 923, 2007; active means well fitted activation curve with a large enough effect; inconclusive means small, poorly fitted or top-dose-only effect;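 further: potency means the concentration at half of the fitted maximal effect; 0% is about no effect; scaled to a free AFC standard on each plate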
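Compound autofluorescence profiled at 405 nm ex/520 nm em during kinetic caspase 1 run (50 nM enzyme, 5 uM Ac-WEHD-AFC, HEPES pH 7.5, 10 mM DTT). Titration up to 57 uM; baseline from regression intercept, normalized to AFC standard curve.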
* hit, by the source's call; i = inactive; ? = inconclusive; nt = no result given; [ ] = remark or other dose.

The opening 2 compounds (preview)
SMILES | A647 fluor | A488 fluor | TSHR agonist | Resorufin fluor | AID923
Cn1cccc1Cc1nnc(SCC(=O)N2CCCCCC2)n1CCc1ccccc1 | nt | nt | 17% | nt | 0.8%
CC12CCC(C(=O)N3CCN(Cc4ccccc4)CC3)(OC1=O)C2(C)C (stereo not given) | 1e-09 | i | -3% | i | 0.1%

Main list, from the first entry:
SMILES | A647 fluor | A488 fluor | TSHR agonist | Resorufin fluor | AID923
Cn1cccc1Cc1nnc(SCC(=O)N2CCCCCC2)n1CCc1ccccc1 | nt | nt | 17% | nt | 0.8%
CC12CCC(C(=O)N3CCN(Cc4ccccc4)CC3)(OC1=O)C2(C)C (stereo not given) | 1e-09 | i | -3% | i | 0.1%
CC1(CC(=O)O)SC(=O)NC1=O (stereo not given) | 1.7e-09 | i | -1% | i | 1.5%
CS(=O)(=O)N(CC(=O)N1CCN(c2ccccc2F)CC1)c1cc(C(F)(F)F)ccc1Cl | nt | nt | ? | nt | -1.1%
CCCC(=O)N1CCN(C2=NS(=O)(=O)c3ccccc32)CC1 | nt | nt | 0% | nt | 4.5%
Cc1ccc2c(c1)-c1cc(C)nn1C(c1sccc1C)N2 (stereo not given) | 3.2e-08 | i | ? | i | 4.9%
O=c1c(-c2ccc(F)cc2)nc2cnc(Oc3ccccc3)nc2n1Cc1cccs1 | 6.4e-09 | i | nt | i | 21%
Cc1ccc(-n2c(SCC(=O)NCc3ccco3)nc3sc(C)c(C)c3c2=O)cc1 | 1e-09 | i | 15% | i | 0.2%
CCN(CCCCN1C(=O)c2ccccc2C1=O)c1ccc2c(c1)C(=O)N(C)C2=O | 3.4e-08 | i | ? | i | 16%
Nc1nnc(SCCOc2ccccc2)s1 | 3e-08 | i | -10% | i | -1.5%
CC(C)(C)NC(=O)C(c1ccco1)N(C(=O)c1csnn1)c1ccccc1 (stereo not given) | 3.2e-08 | i | 12% | i | 1.4%
O=C(COC(=O)CN1C(=O)c2ccccc2C1=O)Nc1ncc(Cl)cc1Cl | 1.4e-08 | i | 0% | i | 1.3%
CCOC(=O)c1cccc(NC(=O)C2CCCN2S(=O)(=O)c2cccc3cccnc23)c1 (stereo not given) | nt | nt | -3% | nt | -1.3%
O=S(=O)(c1ccc(Cl)cc1)N1CCSC1c1ccco1 (stereo not given) | 1e-09 | i | ? | i | -0.3%
C=CCN1C(=O)C(O)(CC(=O)c2ccccc2)c2ccccc21 (stereo not given) | 2.1e-08 | i | 1% | i | -1.4%
COc1ccc(-c2nc(C#N)c(NCc3ccc(F)cc3)o2)cc1OC | 2.8e-08 | i | 8% | i | 0.1%
Cc1nn(-c2ccccc2)c(C)c1NS(=O)(=O)c1ccccc1 | 3.3e-08 | i | 19% | i | -0.5%
COc1ccccc1-n1c(-c2cccnc2)n[nH]c1=S | 1e-09 | i | -8% | i | -1.5%
COC(=O)c1c(NC(=O)C2CCC2)sc(C(=O)N(C)C)c1C | 1e-09 | i | ? | i | -2.2%
COCCCn1c(SCC(=O)Nc2ccc(C(=O)OC)cc2)nc2ccccc2c1=O | 6e-09 | i | 17% | i | -0.6%

Shown with each value named: entries from further up.
COc1ccccc1-n1c(-c2cccnc2)n[nH]c1=S
  A647 fluor: 1e-09
  A488 fluor: i
  TSHR agonist: -8%
  Resorufin fluor: i
  AID923: -1.5%
COC(=O)c1c(NC(=O)C2CCC2)sc(C(=O)N(C)C)c1C
  A647 fluor: 1e-09
  A488 fluor: i
  TSHR agonist: ?
  Resorufin fluor: i
  AID923: -2.2%

New compounds follow
SMILES | A647 fluor | A488 fluor | TSHR agonist | Resorufin fluor | AID923
COc1nc(N(C)S(=O)(=O)c2ccc(C)cc2)nc(C)c1Cl | 9.1e-08 | i | nt | i | nt
Cc1ccccc1NC(=O)C1CCCN(S(=O)(=O)c2cccc3cccnc23)C1 (stereo not given) | nt | nt | 7% | nt | 0.9%
Cc1ccc(OCCNS(=O)(=O)c2cccs2)cc1 | 1.3e-08 | i | ? | i | -1.0%
c1ccc(Cn2nnnc2CN2CCCC2)cc1 | 3.3e-08 | i | 3% | i | -0.3%
COc1ccc(C(=O)Nc2cccc(C)c2)cc1S(=O)(=O)N1CCOCC1 | 3e-08 | i | ? | i | 0.2%
COc1ccc(CC(=O)Nc2ccc(-c3nnc(-c4ccc(C)cc4)o3)cc2)cc1 | 1e-09 | i | -4% | i | -1.5%
COCCN(CCOC)c1nc(C)nc2c1nc(-c1ccccc1)n2CCN1CCOCC1 | nt | nt | ? | nt | 0.5%
CCOc1ccc(C(=O)NC2CCN(S(=O)(=O)CC)CC2)cc1 | 5.7e-09 | i | -10% | i | -0.8%
CCOc1ccc(-c2nnc3sc(-c4c(OC)cccc4OC)nn23)cc1 | 2e-09 | i | nt | i | nt
O=C(Cn1nnc(-c2ccc(CN3CCOCC3)cc2)n1)N1CCCc2ccccc21 | 1.5e-09 | i | 26% | i | 0.9%
CCOC(=O)C1CCCN(C(=O)Nc2cccc(Cl)c2)C1 (stereo not given) | 2.3e-09 | i | 11% | i | 0.0%
Cc1cc(C)nc(N(C#N)CCOc2ccccc2)n1 | 1e-09 | i | 27% | i | -0.7%
CCOC(=O)CNC(=O)c1ccc2[nH]c3c(c2c1)CCCC3 | nt | nt | -10% | nt | 9.6%
Cc1ccc(S(=O)(=O)NCCNC(=O)c2ccccc2)cc1 | 2e-08 | i | 5% | i | 1.1%
O=C1c2ccccc2C(=O)N1CCn1c(=O)oc2ccccc21 | 2.3e-08 | i | 7% | i | -1.9%
CCOC(=O)C1=Nc2ccccc2C1=[N+]=[N-] | 3e-08 | i | nt | i | nt
Cc1cc2oc(=O)cc(CN3CCN(Cc4ccccc4)CC3)c2cc1Cl | 4.4e-09 | i | 18% | i | 0.7%
CCOCCn1c(CN2CCC(Cc3ccccc3)CC2)nc2c1c(=O)n(C)c(=O)n2C | 1e-09 | i | 22% | i | 1.6%
COc1ccc(C)cc1NC(=O)c1[nH]c(C)c(C(C)=O)c1C | 3.1e-08 | i | 6%[11.4 µM] | i | -1.4%
Cc1cc(C(=O)OCc2nc3ccccc3s2)c(C)o1 | 1e-09 | i | nt | i | 0.2%
Cc1nnc(SCc2nnc(-c3ccccc3Br)o2)n1-c1ccccc1 | 1e-09 | i | -7%[11.4 µM] | i | -1.5%
Cc1cccc(OCCNC(=O)c2ncn[nH]2)c1 | nt | nt | 12% | nt | 1.2%
COc1ccc(-c2noc(CCC(=O)N(C)c3cccc(C)c3)n2)cc1 | 7.7e-09 | i | 26% | i | -0.2%
Cc1ccc2[nH]c3c(c2c1)CN(C(=O)CN1CCN(c2ccccn2)CC1)CC3 | 3.9e-08 | i | nt | i | nt
O=C(CSc1nnc(Cc2ccccc2)o1)NCCc1ccccc1 | 1e-09 | i | 8% | i | 0.9%
CCCC(=O)NCCc1cc2c(C)ccc(C)c2[nH]c1=O | nt | nt | 5% | nt | 1.6%
COC(=O)C(C)Sc1ccc2nnc(-c3cccc(F)c3)n2n1 (stereo not given) | nt | nt | 16% | nt | 4.9%
c1ccc(-c2cnn3nnnc3n2)cc1 | 2.2e-08 | i | -1% | i | 1.6%
Cc1ccc2cc(CN(CCN3CCOCC3)Cc3nnnn3Cc3ccco3)c(=O)[nH]c2c1C | 2.2e-08 | i | 21% | i | 9.1%
CN(C)CC(C)(C)CN1c2ccccc2Sc2ccccc21 | 2.7e-08 | i | 2%[11.4 µM] | i | 2.8%[11.5 µM]
Cc1ccc(C)c(-n2c(N)c(C(N)=O)sc2=S)c1 | 1.5e-08 | i | -3% | i | -0.4%
CCn1cc(CNC(=O)C2C3CCC(C3)C2C(=O)O)cn1 (stereo not given) | 1e-09 | i | nt | i | 0.2%
Cc1nc(SCCC(=O)O)c2ccccc2n1 | nt | nt | ? | nt | 2.8%
CCn1c(Cc2ccccc2)nnc1SCC(=O)Nc1nc2ccccc2s1 | 1e-09 | i | 6% | i | 0.0%
Cc1cc(C)nc(N2CCC(C(=O)NCC3CCCCC3)CC2)n1 | 1.4e-09 | i | 0% | i | -0.4%
COc1ccc(-n2c(C)cc(C(=O)CSc3nn4c(=O)c(C(C)(C)C)nnc4s3)c2C)cc1 | 1e-09 | i | 3% | i | 1.2%
CCCCCC1=C2CNC(C)(C(=O)OC)C=C2C(C)C1=O (stereo not given) | nt | nt | 4% | nt | 1.0%
CCCc1noc(-c2ccc(-c3ccccc3)cc2)n1 | 3.3e-08 | i | -6%[11.4 µM] | i | -2.1%
O=C(OCc1ccc2c(c1)OCO2)c1ccc(S(=O)(=O)N2CCCC2)cc1 | 3.9e-09 | i | ? | i | -0.5%
CCOC(=O)CCCNC(=O)COc1ccccc1C#N | 1e-09 | i | -2% | i | -1.0%
COCC#Cc1ccc(C2C(C)CCC3C(=O)N4C(CCC(C)C4c4ccc(C#CCOC)cc4)C(=O)N32)cc1 (stereo not given) | nt | nt | 6%[11.4 µM] | nt | -0.2%[11.5 µM]
O=C(Nc1cnccn1)c1cccs1 | nt | nt | ? | nt | 1.3%
COC(=O)C/C=C/C(C)C(OCc1cccc(-c2ccccc2)c1)C1CCCCC1 (stereo not given) | nt | nt | 0%[11.4 µM] | nt | -0.6%[11.5 µM]
O=S(=O)(Nc1ccc(N2CCOCC2)nn1)c1ccccc1 | 3e-08 | i | 7% | i | 1.4%
Cc1ccc(-n2c(=O)cc(NCc3cccnc3)[nH]c2=O)cc1 | 1e-09 | i | 6% | i | -0.2%
O=C(OCC(=O)c1ccc(S(=O)(=O)N2CCCC2)cc1)C1=COCCO1 | 1e-09 | i | 4% | i | -0.3%
COc1cc(C)nc(Oc2ccc(=O)[nH]n2)n1 | 2.3e-08 | i | nt | i | nt
COc1cccc(OC)c1OCCN1CCN(C(=O)c2ccco2)CC1 | 1e-09 | i | nt | i | nt
OCCCc1nc2ccccc2n1CCc1ccccc1 | 1e-09 | i | nt | i | nt
CCCCOC(=O)C(C)Oc1ccc(=O)n(-c2ccccc2)n1 (stereo not given) | nt | nt | 13% | nt | -0.5%
CCOC(=O)c1c(C)oc2c1c(C=NCC1CCCO1)c(O)c1ccccc12 (stereo not given) | 1e-09 | i | -12% | i | 3.5%
Cc1nc(CN2CCCC2=NC#N)n(-c2ccccc2)n1 | nt | nt | 0% | nt | 0.3%
Cc1cccc(OCCCC(=O)Nc2ccc(S(=O)(=O)Nc3onc(C)c3C)cc2)c1 | 2.7e-08 | i | 12% | i | -0.3%
COc1cc2c(cc1OC)C(C(=O)NCc1cccnc1)C(c1cccnc1)N(C)C2=O (stereo not given) | 3.9e-08 | i | -4%[11.4 µM] | i | 0.4%
Cc1nnc(NC(=O)Cc2cccs2)s1 | 3e-08 | i | -2% | i | 0.6%
C[C@@H](C(=O)Nc1ccc2ccccc2c1)[C@H]1C[C@]1(C)[C@H](NP(=O)(c1ccccc1)c1ccccc1)c1ccccc1 | nt | nt | -3% | nt | 1.3%
COCCOC(=O)C1=C(C)NC2=C(C(=O)CCC2)C1c1cc2c(cc1Br)OCO2 (stereo not given) | nt | nt | -5% | nt | 17%
CN(C)S(=O)(=O)c1cccc(C(=O)NCC2CCCO2)c1 (stereo not given) | 2.2e-08 | i | -9% | i | 0.7%
CCCCNC(=O)Nc1ccccc1C(=O)NCc1ccco1 | 2.7e-09 | i | 20% | i | 1.6%
CCOC(=O)c1cc2sc(C)cc2n1CC(=O)N1CCN(C(=O)c2ccco2)CC1 | 2.9e-08 | i | 1% | i | -2.6%
Cc1cc(Nc2ccc(F)c(Cl)c2)n2ncnc2n1 | nt | nt | 9% | nt | 1.9%
Nc1nc(Cl)nc2c1ncn2[C@@H]1O[C@H](CO)[C@@H](O)[C@H]1O | 1e-09 | i | nt | i | 1.7%

Not all compounds are listed; the hit share may differ from the screen's.
